# Screens: PubChem, National Center for Advancing Translational Sciences (NCATS)
# VDR inhibitor: vitamin D3 receptor (human) inhibition | VDR-SRC2-3 peptide fluorescence polarization, 2 h | Potency, µM, inactives show max response, negative = inhibition, usual class: inhibitors | hit rate 0.93% among 400,000 | AID 504847; active means well fitted inhibition curve with a large enough effect; inconclusive means small, poorly fitted or top-dose-only effect, or another doubt; inactive means no such curve, though single readings can be large or run the other way; further: series mostly up to about 120 µM
# Target sequence (P11473 whole entry, looked up): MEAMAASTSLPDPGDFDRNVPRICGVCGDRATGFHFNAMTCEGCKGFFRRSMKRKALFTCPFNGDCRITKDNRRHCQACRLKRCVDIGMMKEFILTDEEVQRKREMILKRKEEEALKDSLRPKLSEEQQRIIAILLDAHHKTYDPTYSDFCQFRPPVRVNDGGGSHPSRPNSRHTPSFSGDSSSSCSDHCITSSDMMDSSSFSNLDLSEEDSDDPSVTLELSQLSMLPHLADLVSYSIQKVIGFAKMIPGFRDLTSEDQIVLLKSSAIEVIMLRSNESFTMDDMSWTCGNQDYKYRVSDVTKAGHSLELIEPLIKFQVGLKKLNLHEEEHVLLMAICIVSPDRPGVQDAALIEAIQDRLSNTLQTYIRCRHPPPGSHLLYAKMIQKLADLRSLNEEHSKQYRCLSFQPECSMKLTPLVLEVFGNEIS
#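 Compounds are added to VDR with labelled SRC2-3 coactivator peptide and held 2 h at room temperature. Inhibition of the VDR–peptide interaction is then read as a change in fluorescence polarization.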
# Active calls of the source: *; ? = inconclusive; & = joins results of further samples. On the % scale 0 is the no-effect control and ±100 the full control effect; potency means the concentration at half of the fitted maximal effect.
VDR inhibitor	Compound
-14%	CC1CCCCC12NC(=O)N(CC(=O)Nc1ccccc1F)C2=O (stereo not given)
-12%	COC(=O)CN(Cc1ccco1)S(=O)(=O)c1ccccc1
-6%	CCOC(=O)N1CCC(NC(=O)c2ccc3c(c2)sc2nc(-c4ccccc4)cn23)CC1
2%	O=c1[nH]c2sc3c(c2c2nncn12)CCCC3
-11%	CC1CC(C)CN(CCCNC(=O)c2ccc3c(c2)NC(=O)C(N2CCCCC2)S3)C1 (stereo not given)
10%	COc1cc2oc(=O)ccc2cc1[C@@H](O)[C@@H]1OC(C)(C)OC1(C)C
-18%	CC(=O)Nc1ccc(NC(=O)CCCc2c[nH]c3ccccc23)cc1
-15%	CCOc1ccc(C2c3c(oc4ccccc4c3=O)C(=O)N2CCCN2CCOCC2)cc1OCC (stereo not given)
-11%	CN(c1ccc(C(=O)NCCC2=CCCCC2)cc1)S(C)(=O)=O
-1%	Cc1cc(=O)n2nc(N3CCCC(C(=O)NCc4ccco4)C3)sc2n1 (stereo not given)

# Other results:
VDR inhibitor	Compound
-9%	Nc1nc2n(n1)C(c1ccccc1Cl)CC(c1ccc(F)cc1)N2 (stereo not given)
-14%	CCc1ccc(/C=C2/C(=O)NC(=O)N2C(C)=O)cc1
2%	NC1=NS(=O)(=O)NC1c1cccc(F)c1 (stereo not given)
2%	COc1cccc(NC(=O)Cn2nnc(-c3nc(-c4ccccc4)no3)c2N)c1
-4%	Cc1ccc(NC(=O)CN2CCC(C(N)=O)CC2)cc1[N+](=O)[O-]
3%	COc1ccc(-c2ccc(-c3nnn(CC(C)=O)n3)cc2)cc1
-7%	COc1ccc(NC2c3ccccc3C(=O)N2c2cccnc2)cc1Cl (stereo not given)
-5%	O=C(NCc1ccccc1F)C(=O)NCC1CCCN1S(=O)(=O)c1ccccc1 (stereo not given)
7%	CCOC(=O)c1ccc(NS(=O)(=O)c2ccc(SC)cc2)cc1
7%	O=C(NCc1ccc2c(c1)OCO2)c1nn2cccnc2c1Cl

# 15 consecutive records from above, quoted:
VDR inhibitor	Compound
10%	COc1cc2oc(=O)ccc2cc1[C@@H](O)[C@@H]1OC(C)(C)OC1(C)C
-18%	CC(=O)Nc1ccc(NC(=O)CCCc2c[nH]c3ccccc23)cc1
-15%	CCOc1ccc(C2c3c(oc4ccccc4c3=O)C(=O)N2CCCN2CCOCC2)cc1OCC (stereo not given)
-11%	CN(c1ccc(C(=O)NCCC2=CCCCC2)cc1)S(C)(=O)=O
-1%	Cc1cc(=O)n2nc(N3CCCC(C(=O)NCc4ccco4)C3)sc2n1 (stereo not given)
-9%	Nc1nc2n(n1)C(c1ccccc1Cl)CC(c1ccc(F)cc1)N2 (stereo not given)
-14%	CCc1ccc(/C=C2/C(=O)NC(=O)N2C(C)=O)cc1
2%	NC1=NS(=O)(=O)NC1c1cccc(F)c1 (stereo not given)
2%	COc1cccc(NC(=O)Cn2nnc(-c3nc(-c4ccccc4)no3)c2N)c1
-4%	Cc1ccc(NC(=O)CN2CCC(C(N)=O)CC2)cc1[N+](=O)[O-]
3%	COc1ccc(-c2ccc(-c3nnn(CC(C)=O)n3)cc2)cc1
-7%	COc1ccc(NC2c3ccccc3C(=O)N2c2cccnc2)cc1Cl (stereo not given)
-5%	O=C(NCc1ccccc1F)C(=O)NCC1CCCN1S(=O)(=O)c1ccccc1 (stereo not given)
7%	CCOC(=O)c1ccc(NS(=O)(=O)c2ccc(SC)cc2)cc1
7%	O=C(NCc1ccc2c(c1)OCO2)c1nn2cccnc2c1Cl

# Further structures.
VDR inhibitor	Compound
14%	COc1cccc(-n2c(C)nnc2SCC#N)c1
-7%	CC(C)OC(=O)c1ccc(NC(=O)c2cccc(-n3cnnn3)c2)cc1
4%	CC(=O)Nc1ccc(S(=O)(=O)NCC2CCC(C(=O)NCCC3=CCCCC3)CC2)cc1 (stereo not given)
-3%	N#Cc1nc(-c2ccc([N+](=O)[O-])cc2)oc1N1CCCCC1
-1%	CSc1cccc(NC(=O)CC(C)n2ccnc2)c1 (stereo not given)
14%	CCOc1ccc(-c2nnc(N3CCOCC3)c3ccccc23)cc1
24%	Cc1ccc(C(=O)N2CC(C)OC(C)C2)cc1S(=O)(=O)N1CCCCC1 (stereo not given)
8%	COc1ccccc1NS(=O)(=O)c1cc(NC(=O)c2cc(F)c(F)c(F)c2F)ccc1N1CCOCC1
7%	COCCCNC(=O)c1ccc2c(c1)CCN2S(C)(=O)=O
-7%	CS(=O)(=O)N(Cc1ccccc1)c1ccc(C(=O)Nc2ccc3c(c2)OCO3)cc1

# Remaining list, next part:
VDR inhibitor	Compound
8%	COc1ccc(-n2nc(C(=O)NCC(=O)N3CCN(c4ccccc4OC)CC3)c3ccccc3c2=O)c(OC)c1
-14%	CCCc1cc(C(=O)Cc2ccc(F)cc2)c(O)cc1O
11%&-9%	COc1ccccc1N1CCN(CCN(C(=O)c2ccc(F)cc2)c2ccccn2)CC1
-2%	C/C(=N\OCC(=O)Nc1ccccc1C(=O)O)c1cccs1
-5%	CCc1ccc(CNC(=O)C2CCN(S(=O)(=O)N3CCC4(CC3)OCCO4)CC2)cc1
-10%	COc1ccc(NC(=O)Nc2ccc3c(c2)C(=O)N([C@H](C)CO)C[C@H](C)[C@@H](CN(C)C(=O)Nc2ccc(OC)cc2)O3)cc1
-12%	COc1cc(OC)c(OC)cc1CNCc1ccco1
-15%	O=C(Nc1ccc2nn(-c3ccccc3)nc2c1)c1ccc(-c2cccc(Cl)c2)o1
10%	COc1ccc(CN(CC(=O)NCc2ccccc2)C(=O)CCC(=O)Nc2ccccn2)cc1
11%	CCNc1nc(NC(C)C)nc(N(C#N)CCOc2ccc(Cl)cc2Cl)n1

# New compounds follow.
VDR inhibitor	Compound
5%	CCCCOC(=O)c1cc(=O)[nH]c2ccc(C)cc12
-3%	COc1ccc(CNC(=O)COC(=O)Cc2ccc(Br)cc2)cc1
1%	N=c1sccn1CC(=O)Nc1ccc2c(c1)CCC2
-5%	Cc1noc(C)c1COc1ccccc1C(=O)NCCc1ccccc1
-12%	CCOC(=O)N1CCC(N2CC34C=CC(O3)C(C(=O)Nc3ccc(OCC)cc3)C4C2=O)CC1 (stereo not given)
-25%	C1=CC2C3C=CC(C3)C2C1 (stereo not given)
16%	CCOc1ccc(CC(=O)NNC(=S)Nc2ccc(OC)c(OC)c2)cc1
11%	COCCOC(=O)c1[nH]c2c(c1C)C(=O)CC(c1ccc(OC)c(OC)c1)C2 (stereo not given)
-21%	O=C1C(Nc2ccccc2)=C2CCCC=C2N1c1ccccc1
-7%	CC1CC(C)CN(S(=O)(=O)c2cc3c4c(c2)C(C)C(=O)N4CCC3)C1 (stereo not given)

# Later entries:
VDR inhibitor	Compound
-3%	O=C(O)CCCn1cc(NC(=O)COc2ccc(F)cc2)cn1
-3%	O=C(c1ccccc1)c1ccccc1N/C=C/c1nnnn1-c1ccccc1
-15%	O=C1c2ccccc2[C@@H]2CC(O)C(O)CCN12 (stereo not given in full)
2%	CCOc1ccc(OCCC(=O)N(CCC2=CCCCC2)c2c(N)n(Cc3ccccc3)c(=O)[nH]c2=O)cc1
-2%	Cc1csc(N2CCCC2c2nc3cc(C(F)(F)F)ccc3n2CCOCCO)n1 (stereo not given)
20%	O=C1CCC(C(=O)OCc2cc(=O)oc3ccc4ccccc4c23)=NN1
-9%	C/C(=N\NC(=O)Cn1cc([N+](=O)[O-])cn1)c1ccc(O)cc1
-6%	CC(=O)n1cc(C2C(=O)CC(C)(C)CC2=O)c2ccccc21
3%	COc1ccc(NCC(=O)Nc2ccc(C#N)cc2)cc1Cl
-7%	COc1ccc(-n2nc(C(=O)NCC(=O)Nc3cc(OC)c(OC)c(OC)c3)c3ccccc3c2=O)cc1Cl

# (more compounds)
VDR inhibitor	Compound
-17%	CCOC(=O)c1sc2nc3n(c(=O)c2c1C)CCC(C)CC3 (stereo not given)
-13%	COc1ccc(CCNC(=O)CC(=O)N/N=C/c2ccc(Br)cc2)cc1OC
3%	COc1ccc(Oc2nc(C(F)(F)F)nc3ccccc23)cc1
-7%	Nc1cccc(NC(=O)CCC(=O)NCc2ccco2)c1
-9%	CN(CC(=O)Nc1cccc(F)c1)C(=O)CCNC(=O)c1ccco1
-1%	COc1ccc(NS(=O)(=O)c2cccc(NC(=O)CCC(=O)c3ccc(Cl)cc3)c2)cc1
4%	CCc1cccc(NC(=O)CNS(=O)(=O)c2ccc3nc(C)sc3c2)c1
2%	COC(=O)[C@H](C)NC(=O)Nc1cccc(C(F)(F)F)c1
2%	CCS(=O)(=O)N1N=C(c2cccc(NS(C)(=O)=O)c2)CC1c1cccs1 (stereo not given)
-13%	Oc1ccccc1N1CCN(C(=S)NCCc2ccccc2)CC1

# New compounds follow
VDR inhibitor	Compound
?	Cc1cc(SCC(=O)c2ccc(Cl)cc2)nc(=O)[nH]1
11%	COc1ccc(N2CC(C(=O)Nc3ccc(F)cc3F)CC2=O)cc1 (stereo not given)
-1%	O=C(C1CC1)N1CCc2cc(S(=O)(=O)N(CCO)Cc3ccccc3)ccc21
0%	COc1ccc(/C=C2\SC(=S)N(CCCC(=O)Nc3cccc(C(=O)O)c3)C2=O)cc1OC
3%	COc1ccccc1OP(=O)(O)Oc1ccccc1OC
6%	O=Cc1ccc(-c2ccc(F)cc2)o1
-14%	O=C(Cc1ccc(Cl)cc1)Nc1ccc(C(=O)N2CCCCC2)cc1
0%	CN(CC(=O)Nc1ccc(Cl)cc1)C(=O)CNC(=O)c1cccs1
6%	Cc1ccc(C)c(N(CC(=O)NN=C2CCN(C)CC2)S(=O)(=O)c2ccccc2)c1
-14%	Cc1cc(-c2nc(C)c(-c3nnc(SCC(=O)Nc4ccc(Cl)cc4)n3C)s2)no1

# Following part.
VDR inhibitor	Compound
4%&13%	CCc1cccc(C)c1NC(=O)CSc1nc2ccncc2[nH]1
7%	COC(=O)/N=C(/Cc1ccc(OC)cc1)c1ccc(OC)cc1
11%	CCSc1nnc(NC(=O)CCNS(=O)(=O)c2ccccc2F)s1
4%	O=C(Nc1cccc(-c2nc3ccccc3o2)c1)c1cccc(Br)c1
-2%	Cc1cc(C)c(NS(=O)(=O)c2ccccc2)c(C)c1NS(=O)(=O)c1ccccc1
2%	CC1CCN(C(c2ccc(F)cc2)c2sc3nc(-c4ccco4)nn3c2O)CC1 (stereo not given)
-11%	COc1c(C(=O)Nc2ccc(Br)cn2)ccc2ccccc12
11%	CC1CCC(NC(=O)CNC(=O)c2cccs2)CC1 (stereo not given)
-16%	Cc1nc(-c2ccc(S(=O)(=O)N3CCN(c4ccccc4)CC3)cc2)co1
1%	CCCCOc1ccc(CNC(=O)c2cnc3sc(N4CCC(C)CC4)nn3c2=O)cc1

# More compounds follow:
VDR inhibitor	Compound
-5%	COc1cccc(Nc2sc(C(=O)c3ccc(F)cc3)c(N)c2C(=O)NCc2ccc(Cl)cc2)c1
0%	O=C(O)c1ccc(COc2ccccc2/C=C2/NC(=O)N(c3cccc(Cl)c3)C2=O)cc1
-8%	COc1ccccc1C(=O)NCC(=O)N/N=C/c1cc(Br)ccc1OCc1ccccc1
0%	O=C1CCC(=O)N1CCSC(=S)N1CCOCC1
-4%	COCc1cc(=O)[nH]c2c1c(-c1ccccc1)nn2C
-14%	O=C(COc1ccccc1)N1CCN(c2nnc(-c3ccccc3)c3ccccc23)CC1
2%	O=C(CN(c1ccc(Cl)cc1)S(=O)(=O)c1ccc(Cl)c([N+](=O)[O-])c1)NCCc1ccccc1
2%	COc1cc2c(cc1OC)C(c1ccc(-c3cc(Cl)ccc3Cl)o1)=NCC2
-20%	N/C(=N\OC(=O)c1cc(-c2ccccc2)nc2ccccc12)c1cccnc1
6%	CCN(CC)S(=O)(=O)c1cccc(C(=O)Nc2cccnc2)c1

# (continued)
VDR inhibitor	Compound
13%	CN(C)C(=O)/C(=C\c1ccncc1)NC(=O)c1ccccc1
-9%	Cc1ccc(S(=O)(=O)CC(C)N2CCOCC2)c(S(=O)(=O)CC(C)N2CCOCC2)c1 (stereo not given)
-6%	O=C(c1ccccc1)N1N=C(c2ccccc2)CC1c1ccccc1[N+](=O)[O-] (stereo not given)
1%&-4%&13%	CC(C)(Oc1ccc(Cl)cc1)C(=O)O
5%	O=C(NC1CCCCC1)C(c1cccnc1)N(C(=O)c1csnn1)C1CCCC1 (stereo not given)
16%	O=C(CNC(=O)c1cccs1)c1ccc(Cl)cc1
-13%	COc1ccc2c(c1)[C@]1(C)CCC(=O)C[C@H]1CC2
12%	COc1ccc(-c2cc(C(F)(F)F)n3nc(C(=O)Nc4sc5c(c4C(=O)OC(C)C)CCCC5)cc3n2)cc1OC
16%	COCC(C)NC(=O)c1ccc(N(C)C)cc1 (stereo not given)
-12%	CCN(CC)C(=O)c1sc(NC(=O)c2ccc(Br)o2)c(C(=O)OC)c1C

# Next part
VDR inhibitor	Compound
5%	c1cnc(N2CCN(Cc3c[nH]c4ccccc34)CC2)nc1
5%	CCOC(=O)Cn1c(=O)n(-c2ccccc2OC)c2nc(-c3ccccc3F)nc(C(N)=O)c21
6%	CSc1ccc(C(=O)C2CCCN(C(=O)c3nonc3C)C2)cc1 (stereo not given)
-14%	COc1ccc(NC(=O)Nc2ccc(F)c(F)c2)c(OC)c1
-6%	O=C(Nc1ccc(NC(=O)C2CC2)nc1)c1cccc(F)c1
8%	CCOc1ccccc1C(=O)NCCC(=O)O
3%	Cc1c(C(C)C)c(=O)n(-c2ccc(S(=O)(=O)N3CCOCC3)cc2)n1C
-9%	CCCn1nc(C(=O)N2CCc3ccccc3C2)c2ccccc2c1=O
5%	CCOCCCNC(=S)Nc1ccc(S(N)(=O)=O)cc1
-3%	Nc1nnc(SCC(=O)OCC(=O)NC2CCCCC2)s1

# Following part:
VDR inhibitor	Compound
?	COc1ccc(CNC(=O)CCn2c(=O)c3cccn3c3ccc(F)cc32)cc1
10%	COc1nc(SCC(=O)Nc2ccccc2Cl)nc(N(C)C)n1
10%	N[C@@H](Cc1ccccc1)c1nnc(SC/C=C/c2ccccc2)o1
21%	COc1ccc(Cn2c(=O)n(-c3ccc(OC)cc3)c(=O)c3c2c2cc(OC)ccc2n3C)cc1
13%	O=C(Cn1c(-c2cccs2)cc2ccccc21)N1CCN(c2ccccc2F)CC1
-2%	O=C(c1cc(COc2ccc3ncccc3c2)on1)N1CCC[C@H]1CO

# These rows are one share of the data, so the mix of outcomes need not match the whole.
